# T cruzi repl: blocks replication of Trypanosoma cruzi; T. cruzi beta-gal in NIH3T3, luminescence, 90 h; inhibition, % (concentration not given with the values); hit rate 1.4% among 300,000; AID 1885;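 active means mean inhibition across valid replicates above about 55%, limit read from the data; inconclusive means mean below that limit but half or more replicates reach it; inactive means mean below it, under half of replicates reach it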;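 further: signal also drops with host cell toxicity which is not excluded here; 0% = plate median of DMSO wells and 100% = zero luminescence signal; higher percent means less beta-gal luminescence so fewer parasites; stock transfer was 50 nL into about 50 µL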
# Beta2AR agonist: human beta-2 adrenergic receptor agonism by FAP; P07550; response, % (concentration not given with the values); Am2.2-beta2AR cells, FAP receptor internalization, flow cytometry; reference of the scale not given here; hit rate 0.43% among 340,000;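 active means response above a set limit, near 3 SD of response in nonfluorescent compounds, cut at about 42% in these data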;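 further: stock transfer was 100 nL into about 11 µL; a reference agonist was the positive control; negative values mostly stem from fluorescent compounds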
# A1 inh: inhibitors of the anti-apoptotic protein A1, read as caspase activation; MEF A1-2A-BIM cells, Caspase-Glo 3/7 luminescence, 3 h; percent of clofoctol response, vehicle zero; caspase activation, % (no concentration beside the values); hit rate 0.066% among 330,000;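 active means over half of replicate activation scores above 10%, or exactly half above 10 with the replicate mean above 10; inconclusive means replicate mean below 10 yet half the replicates above 10; inactive means over half of replicates below 10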;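 further: wells of about 30 µL received 50 nL stock; many hits fall short of the cut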
# ALR H2O2 inh: blocks human ALR sulfhydryl oxidase activity. purified ALR, DTT oxidation, H2O2 HRP-luminol luminescence. inhibition, % (concentration not given with the values). hit rate 3.8% among 290,000;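 active means mean and each replicate at 75% or more; inconclusive means only one of the two met; inactive means neither met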;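 further: stock transfer was 7.5 nL into about 7.5 µL; 0% = neutral wells and 100% = wells with inactivated enzyme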
# Beta cell apopt: beta cell apoptosis inhibition; protection from apoptosis, % (concentration not given with the values); AID 435005; hit rate 0.8% among 300,000; INS-1E cytokine-induced death, ATP luminescence, 48 h; percent of positive-control rescue, neutral wells zero;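 active means all replicates at 75% or more, or half of them and the mean; inconclusive means half reach 75% but not the mean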;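 further: 0% = cytokine-treated negative control wells and 100% = positive control rescue; higher means more ATP so stronger rescue from cytokine killing; wells of about 40 µL received 100 nL stock; the first replicate is given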
# LANA-H2A inh: blocks KSHV LANA binding to histone H2A/H2B; AID 2629; Q9QR71; hit rate 0.6% among 320,000; inhibition, % (test concentration not listed); cell-free LANA-H2A/H2B peptide, fluorescence polarization; in the data active means inhibition mostly above about 10%, no sharp cut-off; inactive means mostly below about 6.7%;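 further: stock transfer was 7.5 nL into about 10 µL; 0% = median of vehicle wells and 100% = median of positive control wells; one replicate is shown; the record names a cut of 25% in any replicate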
# Target sequence (Q9QR71 whole entry, looked up): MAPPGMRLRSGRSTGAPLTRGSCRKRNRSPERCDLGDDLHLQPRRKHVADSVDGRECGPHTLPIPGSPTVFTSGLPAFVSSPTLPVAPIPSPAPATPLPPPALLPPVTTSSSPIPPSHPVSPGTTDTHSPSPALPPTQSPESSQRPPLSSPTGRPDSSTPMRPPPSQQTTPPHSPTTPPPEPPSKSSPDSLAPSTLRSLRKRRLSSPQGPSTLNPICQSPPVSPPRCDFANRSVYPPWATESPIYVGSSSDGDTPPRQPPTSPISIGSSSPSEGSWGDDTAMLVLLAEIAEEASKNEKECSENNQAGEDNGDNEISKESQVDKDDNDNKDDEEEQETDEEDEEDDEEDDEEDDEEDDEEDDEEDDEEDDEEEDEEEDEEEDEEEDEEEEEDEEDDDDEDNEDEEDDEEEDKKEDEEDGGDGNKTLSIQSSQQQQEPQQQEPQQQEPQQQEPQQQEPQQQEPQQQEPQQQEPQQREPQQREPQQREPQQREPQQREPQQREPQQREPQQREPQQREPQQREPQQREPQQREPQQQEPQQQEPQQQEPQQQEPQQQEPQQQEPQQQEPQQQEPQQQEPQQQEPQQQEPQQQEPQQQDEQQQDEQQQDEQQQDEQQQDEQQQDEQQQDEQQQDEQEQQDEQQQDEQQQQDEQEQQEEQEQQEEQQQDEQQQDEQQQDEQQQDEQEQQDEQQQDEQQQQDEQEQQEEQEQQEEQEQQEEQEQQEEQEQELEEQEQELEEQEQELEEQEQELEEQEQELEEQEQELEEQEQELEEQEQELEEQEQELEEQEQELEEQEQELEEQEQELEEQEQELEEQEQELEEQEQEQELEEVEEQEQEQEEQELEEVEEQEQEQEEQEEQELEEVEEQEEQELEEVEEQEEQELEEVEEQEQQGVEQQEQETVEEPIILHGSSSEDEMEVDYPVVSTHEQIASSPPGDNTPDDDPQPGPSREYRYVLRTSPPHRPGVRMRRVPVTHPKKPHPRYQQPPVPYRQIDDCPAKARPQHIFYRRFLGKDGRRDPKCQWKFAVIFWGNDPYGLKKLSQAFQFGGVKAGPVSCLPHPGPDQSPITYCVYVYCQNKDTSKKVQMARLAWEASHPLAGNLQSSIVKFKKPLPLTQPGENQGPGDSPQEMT
# Calb FLC: affects C. albicans growth with fluconazole; AID 1979; hit rate 0.57% among 300,000; growth inhibition, % (no concentration beside the values); C. albicans CaCi-2 (fluconazole-resistant clinical isolate) + fluconazole, Alamar Blue growth, 48 h;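 active means most replicates above 75%; inconclusive means exactly half above 75%; inactive means most below 75%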;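 further: all wells also contain fluconazole at 8 µg/ml as a sub-toxic cotreatment; 0% = median of DMSO wells and 100% = median of geldanamycin control wells; wells of about 8 µL received 7.5 nL stock; the first replicate is given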
# rRNA inh HTS: inhibits bacterial ribosomal RNA function over humanized ribosomes. E. coli WT GFP vs humanized-ribosome RFP mutants, fluorescence, 24 h; hits give low values; DMSO median 0, no signal -100. GFP signal change (wild-type ribosome), % (test concentration not listed). hit rate 1.6% among 350,000. AID 720706;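 active means significant combined selectivity score with lowered wild-type GFP, culture density cut under 30%, mutant RFP and density less affected; inactive means any of these conditions unmet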; further: one replicate is shown; some compounds called inactive have numbers as strong as hits
# rRNA inh HTS OD600: recorded beside rRNA inh HTS, whose call it bears; OD600 change, %; measured here: OD600 growth;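 optical density of the mix in the first replicate; 0 = DMSO median and -100 = no signal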
# rRNA inh HTS RFP: also measured in rRNA inh HTS; calls as there; RFP signal change, %; measured here: RFP humanized mutant strains;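 first replicate; 0 = DMSO median and -100 = no signal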
# * hit, by the source's call; ? = inconclusive; . = not tested or not shown.
cpd	Compound	T cruzi repl	Beta2AR agonist	A1 inh	ALR H2O2 inh	Beta cell apopt	LANA-H2A inh	Calb FLC	rRNA inh HTS	rRNA inh HTS OD600	rRNA inh HTS RFP
1	O=C1NCCN2CCCC12 (configuration not stated)	.	8	0.4	-1	-8	1.9	.	.	.	.
2	CC(C)C[C@H]1C(=O)N2CCC[C@H]2[C@]2(O)O[C@](NC(=O)[C@@H]3C=C4c5cccc6[nH]cc(c56)C[C@H]4N(C)C3)(C(C)C)C(=O)N12	.	-20	0.8	-62	1	7.9	.	.	.	.
3	COC(=O)C1=C(c2cccc(C#N)c2)C[C@@H]2CC[C@H]1N2C(=O)NCC1CC1	.	-1	0.1	-2	-1	0.4	.	7	10	-0.6
4	CCOc1ccc(N2C(=O)NC(=O)/C(=C\c3ccccc3[N+](=O)[O-])C2=O)cc1	-23	6	-0.3	-19	-1	-4.2	1	.	.	.
5	O=[N+]([O-])c1cccc(CCl)c1	.	-1	0.0	10	-2	2.5	.	.	.	.
6	Cc1cccc(N2C(=O)NC(=O)/C(=C\c3ccc4c(c3)CCCN4Cc3ccccc3)C2=O)c1	-4	-38	0.1	1	-17	1.9	-4	.	.	.
7	C=C1C2[C@H](OC(C)=O)[C@@H]3CC(=O)[C@]4(C)OC[C@@]3(C)[C@@]4(O)[C@@H](OC(C)=O)[C@H](OC(C)=O)[C@@]2(COC(=O)c2ccccc2)[C@@H](OC(C)=O)C[C@@H]1O (some centres not stated)	15	5	-0.1	-7	.	-2.6	2	.	.	.
8	COc1cc(/C=C/[N+](=O)[O-])ccc1OC(=O)c1cccnc1	0	25	8.0*	10	12	0.7	13	2	7	1.9
9	CC(=NCCCO)c1c(O)[nH]c(=O)[nH]c1=O	-11	9	0.4	.	.	0.2	-13	13	3	0.3
10	O=C(COc1ccc(Br)cc1)N1CCN(C2CCCC2)CC1	13	6	0.1	-4	7	3.3	4	.	.	.
11	O=C(Nc1c(F)cc(F)cc1F)c1cccn(Cc2ccccc2)c1=O	-6	13	0.4	-1	-2	2.1	33	-12	-12	0.1
12	C=CCOC(=O)C1=C(C)OC(N)=C(C(=O)OCC)C12C(=O)N(CC(N)=O)c1ccccc12 (configuration not stated)	-4	0	1.0	-19	-2	2.7	-7	.	.	.
13	CCCNS(=O)(=O)c1ccc(OCC(=O)N2CCN(Cc3ccc4c(c3)OCO4)CC2)c(C)c1	12	12	-0.3	.	8	.	3	-2	-13	2.8
14	O=[N+]([O-])c1ccc(O)c([N+](=O)[O-])c1	4	9	-0.2	-5	7	2.5	.	-1	-4	-2.1
15	COCCO[C@H]1CC[C@@]2(C)C(=CCC3C2CC[C@@]2(C)C3CC[C@]2(C)O)C1 (some centres not stated)	.	7	-1.0	-4	-1	0.0	.	-13	-11	-0.4
16	CCN1C(=O)NC(=O)/C(=C\c2cn(CC(=O)N3CCCCC3)c3ccccc23)C1=O	2	31	1.1	-3	3	2.5	5	27	10	8.9
17	Fc1ccc(C[n+]2c(-c3ccccc3)cc(-c3ccccc3)cc2-c2ccccc2)cc1	55*	.	-0.4	-3	128*	-0.5	64	-53	-78	-27
18	Cc1cccc(N2C(=O)NC(=O)/C(=C/c3ccc(N4CCOCC4)cc3)C2=O)c1	-5	3	-0.9	97*	-15	0.0	13	7	16	7.9
19	CN(C)CC1CSCCC1(O)c1ccc(C(F)(F)F)cc1 (configuration not stated)	-22	-1	0.2	1	-5	-7.1	-4	7	8	7.5
20	COc1cccc(CCNCc2ccc(SC)cc2)c1	?	-5	-2.5	1	-2	-1.8	-7	.	.	.

cpd	Compound	T cruzi repl	Beta2AR agonist	A1 inh	ALR H2O2 inh	Beta cell apopt	LANA-H2A inh	Calb FLC	rRNA inh HTS	rRNA inh HTS OD600	rRNA inh HTS RFP
21	Cc1cc(OCC(=O)OC(C)C)c2c3c(c(=O)oc2c1)CCCC3	12	-3	1.2	-7	4	1.0	1	.	.	.
22	OC(CCNCCc1c[nH]c2ccccc12)C(F)(F)Cl (configuration not stated)	-4	2	0.8	9	0	0.4	0	15	3	-4.6
23	CCN(CC)C(=O)c1ccc(NC(=O)COc2ccc([N+](=O)[O-])cc2Cl)cc1	2	-6	-0.1	-7	1	-4.6	-12	.	.	.
24	C=C1C(=O)O[C@H]2C[C@@H](C)[C@@H]3C=CC(=O)[C@@]3(C)C[C@H]12	23	.	4.4	.	104*	-2.8	69	-6	-5	11
25	CCCCn1c(O)c(C(CC)=NCc2cc(OC)cc(OC)c2)c(=O)[nH]c1=O	13	10	-0.2	-2	-3	-1.3	-2	.	.	.
26	CCOP(=S)(OCC)Oc1cc(C)oc(=O)c1Cl	0	2	-0.1	-1	-8	-3.9	-3	7	3	-1.7
27	CCN1CCN(c2nc3c(c(=O)[nH]2)CCC3)CC1	2	-3	1.0	3	.	1.4	16	12	10	1.7
28	CCCC[N+]12CCC(CC1)C(=C(c1ccccc1)c1ccccc1)C2	22	0	-0.9	-5	-4	-0.1	-24	.	.	.
29	COC(=O)C1=C(c2ccccc2OCc2ccccc2)C[C@@H]2CC[C@H]1N2C(=O)NCCOc1ccccc1	.	6	-0.2	-2	4	8.1	.	1	1	0.8
30	O=C(c1ccccc1F)c1cn(CC(=O)N2CCCCC2)c2ccccc12	-3	-4	0.1	-16	1	0.8	?	.	.	.
31	Nc1nonc1C(=O)N/N=C/c1ccc([N+](=O)[O-])o1	-4	5	0.9	-21	-4	4.4	3	.	.	.
32	O=C1CC(=O)N(Cc2ccccc2)C(=S)N1	-2	11	0.6	31	-2	1.4	-9	13	8	27
33	Cc1ccc2c(c1)C1CN(C)CCC1N2C(=O)c1ccc(Br)o1 (configuration not stated)	18	3	-0.1	.	3	0.1	?	.	.	.
34	O=C(COC(=O)Cc1ccccc1)NC(=O)NC1CCCCC1	2	6	0.5	0	-5	-5.1	-2	-3	-6	-0.1
35	O=c1[nH]c(=O)n(C2CCCCCC2)c(O)c1C=NCCCN1CCOCC1	4	-1	2.1	-1	4	0.7	-6	.	.	.
36	CC(NCc1ccc(Cl)cc1Cl)C(O)c1ccccc1 (configuration not stated)	4	-4	0.3	-24	-1	-1.9	2	-12	-12	-5.7
37	CN1CCN(C(=O)COc2ccc(N(C)S(=O)(=O)c3ccc(F)cc3)cc2)CC1	79*	-6	0.2	-6	0	0.9	10	28	14	22
38	O=C(c1ccc(N2CCCCCC2)c([N+](=O)[O-])c1)N1CCC2(CC1)OCCO2	-3	-20	0.0	-3	-9	.	-10	-21	-25	-2.6
39	Cc1ccc(Cn2c(C)c3cnn(CC(=O)N4CCC5(CC4)OCCO5)c(=O)c3c2C)cc1	-14	0	0.8	8	2	2.3	-26	.	.	.
40	O=C(CSC1c2ccccc2-c2ccccc21)N/N=C/c1ccc(C(=O)O)cc1	-24	1	0.6	-5	-6	0.2	-16	2	-4	0.4

# From compound 1 as far as 3, as listed above:
cpd	Compound	T cruzi repl	Beta2AR agonist	A1 inh	ALR H2O2 inh	Beta cell apopt	LANA-H2A inh	Calb FLC	rRNA inh HTS	rRNA inh HTS OD600	rRNA inh HTS RFP
1	O=C1NCCN2CCCC12 (configuration not stated)	.	8	0.4	-1	-8	1.9	.	.	.	.
2	CC(C)C[C@H]1C(=O)N2CCC[C@H]2[C@]2(O)O[C@](NC(=O)[C@@H]3C=C4c5cccc6[nH]cc(c56)C[C@H]4N(C)C3)(C(C)C)C(=O)N12	.	-20	0.8	-62	1	7.9	.	.	.	.
3	COC(=O)C1=C(c2cccc(C#N)c2)C[C@@H]2CC[C@H]1N2C(=O)NCC1CC1	.	-1	0.1	-2	-1	0.4	.	7	10	-0.6

# (cont.)
41: CC(=O)c1cc(C(C)=O)c(C)[n+](C)c1C
42: O=C1NC(=O)C(=Cc2ccc(-c3ccccc3[N+](=O)[O-])o2)C(=O)N1
43: CCCCn1c(O)c(C(C)=NCCN2CCCCC2)c(=O)[nH]c1=O
44: CC(=O)Nc1ccc(OC(=O)N(C)c2ccccc2)cc1
45: C[C@H](NC(=O)N1C[C@H]2C[C@@H](C1)c1cccc(=O)n1C2)C(=O)Nc1ccc(F)c(F)c1
46: O=[N+]([O-])c1cccnc1N1CCCNCC1

compound no.	41	42	43	44	45	46
T cruzi repl	-7	-13	0	12	-6	15
Beta2AR agonist	-1	-8	6	-2	0	1
A1 inh	0.9	-0.1	-0.7	-0.5	0.0	0.0
ALR H2O2 inh	.	.	-7	-8	-9	-25
Beta cell apopt	.	-2	-2	-7	-9	0
LANA-H2A inh	2.9	3.3	0.9	-9.9	8.6	3.6
Calb FLC	29	-4	33	6	0	-2
rRNA inh HTS	21	-4	.	.	6	8
rRNA inh HTS OD600	8	-3	.	.	14	6
rRNA inh HTS RFP	6.0	-0.9	.	.	9.7	-2.4

47: CN1C(=O)N(C)C(=O)C2(Cc3cc([N+](=O)[O-])ccc3N3CCN(C(=O)c4ccccc4)CC32)C1=O (configuration not stated)
48: CC1CCC/C=C/C2CC(O)CC2C(O)/C=C/C(=O)O1 (configuration not stated)
49: CN(C)C(=O)Oc1ccc2c(=O)c(Oc3ccccc3Br)coc2c1
50: COC(=O)C1CN(C#N)N(c2ccc(Cl)cc2)C12c1ccccc1-c1ccccc12 (configuration not stated)
51: CCC(=NCc1cccnc1)c1c(O)n(-c2ccc(C)cc2)c(=O)[nH]c1=O
52: COc1ccc(C)cc1NC1=NC(C)(C)CS1

compound no.	47	48	49	50	51	52
T cruzi repl	8	40	5	43	2	-9
Beta2AR agonist	-4	23	-5	40	7	1
A1 inh	0.0	1.1	0.6	-0.3	0.2	-0.9
ALR H2O2 inh	-4	-10	4	-7	14	2
Beta cell apopt	6	99*	-5	112*	-4	-4
LANA-H2A inh	-3.5	1.5	-0.9	-1.8	-4.6	-2.9
Calb FLC	13	-1	-18	1	-6	-7
rRNA inh HTS	-12	.	5	-8	10	19
rRNA inh HTS OD600	4	.	3	-4	-5	12
rRNA inh HTS RFP	2.6	.	0.5	-0.9	1.9	-5.7

53: CCOP(=O)(C#CC(C)(C)C)C(O)(c1ccccc1)C(F)(F)F (configuration not stated)
54: CCCCn1nc(C)c(C(=O)O)c1Cl
55: CN1CCN(S(=O)(=O)c2ccc(Cl)nc2)CC1
56: CS(=O)(=O)Nc1ccc(Cc2noc(-c3ccc4[nH]cc(CCN)c4c3)n2)cc1

compound no.	53	54	55	56
T cruzi repl	-11	2	-27	19
Beta2AR agonist	4	-7	-2	.
A1 inh	-0.5	?	-0.1	0.4
ALR H2O2 inh	-1	-1	.	-33
Beta cell apopt	-4	2	3	-4
LANA-H2A inh	0.2	-4.0	4.2	0.6
Calb FLC	-12	7	-3	.
rRNA inh HTS	.	9	.	.
rRNA inh HTS OD600	.	6	.	.
rRNA inh HTS RFP	.	-4.3	.	.

# Some values from the results shown.
# A1 inh with no. 55 stands at -0.1
# Calb FLC with no. 54 stands at 7
# ALR H2O2 inh with no. 53 stands at -1

# Bioassay records from PubChem.

# Only part of the results is shown. The share of hits here may be higher or lower than overall.
